# Anaer choline gr = growth inhibitors of anaerobic choline-fed gram-negatives, minimal medium, absorbance | 0.2% of 55,000 active | calls only | Gram-negative bacterium anaerobic choline minimal medium; stronger effect = lower value; many inactives read as strong as hits in the columns shown;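 active means growth z-score on choline under -2 at 7 or 20 h with little or no fall on glycerol, limits in tiers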;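 further: stock transfer was 300 nL into about 50 µL; the organism is E. coli; final concentration not given here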
# Anaer choline gr early = also measured in Anaer choline gr; calls as there; z-score; measured here: choline growth z-score, timepoint 1;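 score of optical density at 7 h as mean of two plates; lower means less growth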
# The depositor's hits bear a star; i = inactive; & = joins results of further samples. Only part of the results is shown (hit frequency here may not be typical).
# Below each SMILES: Anaer choline gr, Anaer choline gr early
COc1ccc(-c2nc3c(cnn3-c3ccccc3)c(=O)[nH]2)cc1COc1ccc(C(C)(C)C)cc1
  i, -1.45
Cc1ccc(-c2nn3c(=O)cc(CNC(=O)Nc4cc(C)cc(C)c4)nc3s2)cc1
  i, 0.23
COc1ccc2c(c1)NC1(CCN(C(=O)Nc3ccc(Br)cc3)CC1)c1cccn1-2
  i, 0.6
COc1cccc(N2CCCn3c2nc2c3c(=O)n(CC(=O)O)c(=O)n2C)c1
  i, -1.16
CCOCCCNS(=O)(=O)c1cc(-c2nc(C)cs2)sc1C
  i, -1.52
CCOc1cc(C2C3=C(CC(c4ccccc4O)CC3=O)Nc3onc(C)c32)ccc1O (stereo not given)
  i, -0.74
CC1CCCC(C)N1C(=O)Cc1noc2ccccc12 (stereo not given)
  i, -0.83
O=C(Nc1cc(-c2ccsc2)no1)C1CCCC1
  i, -0.97
CCCS(=O)(=O)c1nc2ccc(NS(=O)(=O)c3cccc4nsnc34)cc2s1
  i, -2.66
Cc1cc(C)cc(NC(=O)N2CCSc3ncccc32)c1
  i, 0.49

# Next section; the last 7 above are carried over.
# Below each SMILES: Anaer choline gr, Anaer choline gr early
COc1cccc(N2CCCn3c2nc2c3c(=O)n(CC(=O)O)c(=O)n2C)c1
  i, -1.16
CCOCCCNS(=O)(=O)c1cc(-c2nc(C)cs2)sc1C
  i, -1.52
CCOc1cc(C2C3=C(CC(c4ccccc4O)CC3=O)Nc3onc(C)c32)ccc1O (stereo not given)
  i, -0.74
CC1CCCC(C)N1C(=O)Cc1noc2ccccc12 (stereo not given)
  i, -0.83
O=C(Nc1cc(-c2ccsc2)no1)C1CCCC1
  i, -0.97
CCCS(=O)(=O)c1nc2ccc(NS(=O)(=O)c3cccc4nsnc34)cc2s1
  i, -2.66
Cc1cc(C)cc(NC(=O)N2CCSc3ncccc32)c1
  i, 0.49
O=C(CSc1nc2ccccc2nc1N1CCCC1)N1CCN(c2ccccc2)CC1
  i, 0.26
Fc1ccccc1-c1ccc(SCc2nc(-c3ccccc3)no2)nn1
  i, -0.88
CC(C)Cn1c(=O)c(=O)[nH]c2cc(-c3noc(CCc4c[nH]c5ccccc45)n3)ccc21
  i, -0.69
O=C(NCCc1ccc(Cl)cc1)c1cccc(-c2cc(N3CCCC3)ncn2)c1
  i, -0.34
CN1CCN(C(=O)Nc2ccccc2Cl)c2ccccc21
  i, 1.1
Cc1oc(-c2ccc(Cl)cc2)nc1CSc1nc2c(c(=O)[nH]1)CCC2
  i, -0.88
O=C1CCCc2c1cnc1c2c(=O)[nH]c(=O)n1CCN1CCOCC1
  i, -0.81
Clc1cccc(-c2cc3c(N4CCN(Cc5ccc6c(c5)OCO6)CC4)nccn3n2)c1
  i, -0.31
CCC(=O)NCCc1sc2nc(-c3ccc(OC)cc3)nn2c1C
  i, 1.02
O=C(NCCc1nc2cccnc2n1C1CCCCC1)Nc1ccc2c(c1)OCCO2
  i, 0.32

# The listing continues:
# Below each SMILES: Anaer choline gr, Anaer choline gr early
CCC1CN(S(=O)(=O)c2cc(-c3cc(C)no3)cs2)c2cc(Cl)ccc2O1 (stereo not given)
  i, 0.85
Cc1cc(C2CCCN2S(=O)(=O)c2ccc(Br)s2)on1 (stereo not given)
  i, 0.02
O=C(CCc1nnc(C(=O)Nc2ccccc2)s1)NC1CCN(Cc2ccccc2)CC1
  i, 0.63
Cc1cccc(-c2noc(CSc3n[nH]c(=O)c4cc(-c5ccc(F)cc5)nn34)n2)c1
  i, 0.31
O=C(Nc1ccc2c(c1)OCCO2)N1CCN(Cc2cc(=O)n3nc(-c4ccc(F)cc4)sc3n2)CC1
  i, -0.03
Cn1c(C(=O)NC2CC2)cc2c(=O)oc3ccccc3c21
  i, -1.7
CCN1CCN(Cc2cc(=O)n3[nH]c(-c4ccc(C(C)(C)C)cc4)nc3n2)CC1
  i, 0.81
CCC(C(=O)N1CCc2ccccc21)n1nc(-c2ccc(C)cc2)ccc1=O (stereo not given)
  i, -0.23
COc1ccc(NC(=O)CSc2ccc(=O)n(-c3ccc(C)c(C)c3)n2)cc1OC
  i, -0.77
CCSc1nc2ccc(NS(=O)(=O)c3cccc(F)c3)cc2s1
  i, 0.06

# (listing goes on)
# Below each SMILES: Anaer choline gr, Anaer choline gr early
COC(=O)C1CCN(S(=O)(=O)c2cc(N3C(=O)CCS3(=O)=O)ccc2OC)CC1
  i, -1.2
O=C(NC1CCCC1)C1CCCCN1S(=O)(=O)c1ccc(Br)cc1 (stereo not given)
  i, -0.47
CCOC(=O)CC1(NC(=O)N2CCCCCC2c2ccc(C)s2)CCCCC1 (stereo not given)
  i, 0.06
Cc1ccc(NC(=O)CS(=O)(=O)c2ccc3c(c2)n(C)c(=O)n3C)c(Cl)c1
  i, -0.56
Cc1ccccc1-c1nc(CSc2nc(C)c(Cc3ccccc3)c(=O)[nH]2)c(C)o1
  i, 0.96
CCOc1ccc(CNC(=O)c2cc(-c3ccccc3)n(C)c2C)cc1
  i, 1.63
CCNc1nc(NC(C)C)nc(-n2cnc(SC)n2)n1
  i, 0.33
Clc1ccc(N2CCN(Cc3c[nH]c4ncccc34)CC2)cc1
  i, -0.47&0.52
CC(C)CCNC(=O)CCCCn1c(=O)c2ccccc2n(CC(=O)NCc2ccc(Cl)cc2)c1=O
  i, 0.99
COc1ccc(Cn2c(CCC(=O)NCc3ccc(F)cc3)nc3cccnc32)cc1
  i, 1.65

# Additional compounds follow:
# Below each SMILES: Anaer choline gr, Anaer choline gr early
COc1ccc(S(=O)(=O)Cc2nc(-c3ccccc3)no2)cc1
  i, -0.03
Cc1nn(-c2ccc3nnc(C)n3n2)c(C)c1CCC(=O)Nc1ccc2c(c1)OCO2
  i, 0.76
Cc1cc(NC(=O)c2cc3ccccc3o2)n(-c2ncnc3c2cnn3-c2ccc(F)cc2)n1
  i, 0.12
O=C(NCC1CCCO1)c1cnc2sc3c(n2c1=O)CCCCCC3 (stereo not given)
  i, 0.16
O=c1c(S(=O)(=O)c2ccc(F)c(F)c2)c[nH]c2c(F)cccc12
  i, 0.04
O=C(COc1ccc(Cl)cc1)N1CCN(S(=O)(=O)c2cc3c4c(c2)CCN4C(=O)CC3)CC1
  i, -0.06
COc1ccc(-n2ccc(=O)c(-c3nc(-c4ccc(Cl)cc4)no3)n2)cc1
  i, -0.17
Cc1oc(-c2ccc(C(=O)NCC3CCCO3)cc2)nc1CN1CCN(c2ccccc2)CC1 (stereo not given)
  i, 0.71
CCOc1ccccc1NC(=O)C1CCCN(c2ccc(-c3ccccc3)nn2)C1 (stereo not given)
  i, -0.78
O=C(CCC(=O)N1CCc2cc(S(=O)(=O)NCC3CCCO3)ccc21)N1CCCC1 (stereo not given)
  i, -0.25

# (continued)
# Below each SMILES: Anaer choline gr, Anaer choline gr early
COc1cccc(N2CCN(S(=O)(=O)c3cc(-c4cc(C(F)(F)F)on4)sc3C)CC2)c1
  i, -0.68
Cn1cccc1C(=O)C(=O)N1CCN(C(=O)c2ccco2)CC1
  i, -0.4
O=C(c1cccc(Br)c1)N1CCN(Cc2cc(=O)n3nc(-c4ccccc4)sc3n2)CC1
  i, 0.28
COc1ccc(-c2nc(CCNC(=O)COc3ccc(C(C)(C)C)cc3)cs2)cc1
  i, 1.98
O=C(O)c1c2c(nc3ccc(S(=O)(=O)N4CCC(C(=O)NCc5ccccc5)CC4)cc13)CCCC2
  i, -0.86
O=C(NC1CC(=O)N(c2ccc3c(c2)OCCO3)C1)c1ccc2c(c1)OCO2 (stereo not given)
  i, 0.61
CCc1cc(Sc2ccc(NC(C)=O)cc2)n2ncnc2n1
  i, -1.13
CCOC(=O)c1c(S(=O)(=O)N2CCC(C(=O)Nc3cc(C)ccn3)CC2)c(C)n(C)c1C
  i, -0.74
CCOc1ccc(NC(=O)C2Nc3ccc(Cl)cc3S(=O)(=O)N2)cc1 (stereo not given)
  i, -0.6
CCNC(=O)C1CCCN(S(=O)(=O)c2cc(-c3noc(C4CCCC4)n3)cs2)C1 (stereo not given)
  i, 0.67

# The list goes on.
# Below each SMILES: Anaer choline gr, Anaer choline gr early
COc1ccc(OCc2nn3c(-c4ccc5ccccc5n4)nnc3s2)cc1
  i, -0.14
O=C(NCCC1=CCCCC1)c1cnc2sc3c(n2c1=O)CCCCC3
  i, -0.2
Cc1[nH]c(-c2ccc(F)cc2)cc1C(=O)N1CCC(C)CC1
  i, -0.4
O=C(COc1ccc(Cl)cc1-n1cnnc1)Nc1ccccc1
  i, -0.29
COc1cc2c(=O)n(Cc3ccc(C(=O)NC4CC4)cc3)c(=O)n(Cc3ccccc3Cl)c2cc1OC
  i, -0.47
Cc1ccc(Cc2nc(CCNS(=O)(=O)c3cc(F)ccc3F)n[nH]2)cc1
  i, -0.54
Cc1nc2nc3c(c(N4CCN(c5ccc(F)cc5)CC4)n2n1)CCCC3
  i, 0.08
Cc1ccc(-c2ccc(OCCNS(=O)(=O)c3ccc4c(c3)OCCO4)nn2)cc1
  i, -0.39
CCCCCCCCCCCCCCCCCCOC[C@@H](O)COP(=O)([O-])OCC[N+](C)(C)C
  i, -0.2
O=C(Nc1ccc(F)cc1)c1cn(-c2ccccc2)cn1
  i, 0.32

# (further entries)
# Below each SMILES: Anaer choline gr, Anaer choline gr early
Cc1ccc(NC(=O)c2ccc(=O)n(CC(=O)Nc3cc(C)ccc3C)n2)cc1
  i, -0.2
COc1ccc2cc3c(=O)n(-c4ccc(C(=O)O)cc4)nc-3oc2c1
  i, -1.14
C=C(C)CSc1nc2sc3c(c2c(=O)n1Cc1ccccc1)CC(C)(C)OC3
  i, -2.12
CCOC(=O)c1cc(NC(=O)N2CCN(CC)CC2)c(C)nc1C
  i, -0.25
Cc1cccc(CNC(=O)COc2ccc(-c3cnc4ccccc4n3)cc2)c1
  i, 1.97
O=C1CC[C@@H](C(=O)N2CSC[C@H]2C(=O)O)N1
  i, 0.48
COc1ccc2c(c1)NC1(CCN(C(=O)COc3ccc(Cl)cc3)CC1)c1cccn1-2
  i, -1.1
COc1cc2c(cc1OC)[C@@H]1CC(=O)[C@@H](CC(C)C)CN1CC2
  i, 0.09
COc1ccc(C)cc1NC(=O)Cn1c(C)cc(C)c(S(=O)(=O)c2ccc(C)cc2)c1=O
  i, -1.29
CN(Cc1ccc(C(C)(C)C)cc1)Cc1cccc2ccccc12
  i, -0.33&0.57&0.38

# Further compounds:
# Below each SMILES: Anaer choline gr, Anaer choline gr early
O=C(NCC1CCCO1)c1ccc2c(=O)n(Cc3ccccc3)c(SCC(=O)c3c[nH]c4ccccc34)nc2c1 (stereo not given)
  i, 0.75
Cc1nc(Nc2ccccc2F)c2c(C)noc2n1
  i, -0.53
Cc1cccc(NC(=O)CCc2nc(CSc3n[nH]c(-c4ccccc4)n3)no2)c1C
  i, -0.35
Cc1ccsc1-c1nc(-c2ccc3c(c2)nc(C)c(=O)n3C2CCCC2)no1
  i, 1.04
CCC(C)Nc1ccc2nncn2n1 (stereo not given)
  i, -5.1
c1ccc2oc(C3=NCCN3)cc2c1
  i, 0.67
CC(c1nnc(SCC(=O)Nc2cccc(Br)c2)n1C)N1C(=O)COc2ccccc21 (stereo not given)
  i, 2.88
CC(=O)Nc1cc(Cl)ccc1OCc1cc(=O)n2cc(C)sc2n1
  i, -0.56
CC(C)C(=O)Nc1nc2cc(NC(=O)c3cc4cc(Cl)ccc4[nH]3)ccc2s1
  i, -0.11
CC1CCN(S(=O)(=O)c2cn(Cc3noc(-c4cc5cc(Cl)ccc5[nH]4)n3)cn2)CC1
  i, 0.98

# Later entries.
# Below each SMILES: Anaer choline gr, Anaer choline gr early
Cc1ccc(-c2cnc(Nc3cccc(C(=O)NC4CCCc5ccccc54)c3)nc2)cc1 (stereo not given)
  i, 0.26
O=C(c1ccc2c(c1)CCCN2S(=O)(=O)c1ccccc1)N1CCc2ccccc2C1
  i, 2.67
COc1ccc(OCC(=O)N(C)CCc2noc(C(=O)NCc3ccccc3)n2)cc1
  i, -1.03
CCCCC[C@H](O)/C=C/[C@@H]1[C@H]2C/C(=C/CCCC(=O)O)O[C@H]2C[C@H]1O
  i, 0.46&0.52
Cn1c(SCC(=O)NCCCc2ccccc2)nc2cc(-c3ccccc3)sc2c1=O
  i, -0.28
Cc1cccc(-n2ccnc(NCCc3ccccc3)c2=O)c1
  i, -0.45
COc1cc2[nH]c(=O)n(CCCC(=O)N3CCN(c4ccccc4OC)CC3)c(=O)c2cc1OC
  i, -0.66
Cc1ccc2nc3c(cc2c1)CCN3C(=O)C1CC1
  i, -0.19
CCN1CCN(CCNC(=O)C2CCCN(C(=O)c3[nH]c(C)c(C(=O)OC(C)C)c3C)C2)CC1 (stereo not given)
  i, -1.48
Cc1nn(-c2ccccc2)c(C)c1CCc1nn2c(C(F)(F)F)nnc2s1
  i, -0.13

# (continued)
# Below each SMILES: Anaer choline gr, Anaer choline gr early
Cc1cc(-c2nn3c(-c4cccc(Cl)c4)nnc3s2)no1
  i, 1.53
O=S1(=O)NC(=NCc2ccc(Cl)cc2)Nc2ccccc21
  i, 0.07
CC1CSc2ccc(S(=O)(=O)N3CCOCC3)cc2N(CC(=O)N2CCCc3ccccc32)C1=O (stereo not given)
  i, 0.33
Cc1nn(-c2ccc3nnc(C)n3n2)c2c1C(c1ccccc1)CC(=O)N2 (stereo not given)
  i, -2.19
CC(C)NS(=O)(=O)c1ccc(N2C(=O)CCS2(=O)=O)cc1
  i, -0.9
CCOc1ccc(N(Cc2nc3nc(C)cc(C)n3n2)S(=O)(=O)c2ccccc2)cc1
  i, 0.4
COc1ccc(-c2nc(-c3ccc(C)nc3OC)no2)cc1
  i, -0.22
CN(c1ccc(Cl)cc1)S(=O)(=O)c1ccsc1-c1nc(-c2ccc3c(c2)OCO3)no1
  i, 0.95
C=Cc1ccc(Cn2nc3n(CC(C)C)c(=O)c4ccc(C(=O)NC5CCCC5)cc4n3c2=O)cc1
  i, -0.57
O=C(NC1CCS(=O)(=O)C1)c1ccc(NC(=O)c2nsc3ccccc23)cc1 (stereo not given)
  i, 2.09
CC1CC(=O)c2cnc(N3CCN(c4ccc(F)cc4)CC3)nc2C1 (stereo not given)
  i, 1.37
Cc1ccc(C2CC(c3ccc(NS(C)(=O)=O)cc3)=NN2C(=O)CCCC(=O)O)cc1 (stereo not given)
  i, -0.42
Cc1cc(C)c(-c2nc(-c3ccc4c(c3)OCO4)no2)c(=O)[nH]1
  i, -0.66

# Screening data as filed in PubChem.
